Compound activity: PubChem, several laboratories
HIV Env fusion – inhibitors of HIV Env-mediated cell fusion | HeLa-JRFL Env/CEM21 cell fusion, luciferase | inhibition, % at 12.3 µM | actives 1.1% (n = 360,000) | AID 651610;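 active = mean replicate inhibition score of at least 50 and every replicate individually at or above 50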;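 note: 0% = plate neutral controls and 100% = maraviroc near 300 nM; one replicate is shown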
eIF4H inh – inhibitors of RNA binding by human eIF4H. eIF4H fluorescence polarization binding assay. inhibition, % at 35 µM. actives 0.94% (n = 290,000). AID 2012;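 active = 50% or more with normal probe brightness, or confirmed in later tests; about a fifth of its hits are not listed in these tables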;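 note: calls also rest on retests at 20 µM and on dose response follow-up; 0% = protein and probe with vehicle and 100% = probe without protein; strong numbers were not always called active; many hits fall short of the cut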
CSC inhib – cancer stem cell inhibition; cancer stem cell-like cells viability, luminescence; inhibition, % at 7.5 µM; actives 1.1% (n = 300,000);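 active = mean at 75% or more and at least half the replicates too; tested in HMLE shEcad cells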;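 note: 0% = median of negative and 100% = median of positive control wells; the first replicate is given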
UUG fidelity – modulators of start codon recognition fidelity in yeast; S. cerevisiae UUG-firefly luciferase reporter, luminescence/redox ratio; AID 602363; actives 0.13% (n = 350,000); activity score, % at 18.7 µM;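 active = replicate mean at a twofold rise or more, about +100% in these data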;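 note: firefly luciferase made from a UUG start codon reports start codon fidelity; reporter light over untreated wells divided by growth signal over untreated wells; some hits fall short of that in this replicate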
Rce1 inh – blocks yeast Ras-converting enzyme | calls only | Q03530 | actives 0.27% (n = 290,000) | yeast membranes, quenched prenylated peptide cleavage fluorescence | AID 2563;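 active = fall in fluorescence gain of 50% or more versus controls, with final raw signal at or below 3038400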;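 note: plate controls were neutral control wells for no effect and wells lacking membranes for full effect; tested at 10 µM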
MT1-MMP act inh – MT1-MMP (human) activation inhibition; P50281; HT1080 RFP-PRO-GFP cells, GFP/RFP ratio fluorescence, overnight; percent of plate control window, DMSO zero; GFP/RFP ratio change, % at 20 µM; actives 0.061% (n = 360,000);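 active = GFP/RFP ratio change of at least 30% with cell ATP level not reduced by more than half and red fluorescence within 50% of control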; note: strong numbers were not always called active
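Assay system: HT1080 RFP-PRO-GFP cells. Benchmarks: DMSO vehicle wells and RFP-L50D-GFP reporter cell wells. Times: overnight cell settling, then overnight compound exposure, 37 °C, 5% CO2. Compound: 20 µM single dose, 1% DMSO. Read-out basis: GFP/RFP fluorescence ratio.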
PABP polyA inh – blocks human PABP binding to poly(A) RNA; P11940; inhibition, % at 35 µM; fluorescence polarization; actives 1% (n = 290,000);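 active = 50% or more with normal probe brightness, or confirmed in later tests; about a fifth of its hits are not listed in these tables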;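 note: calls also rest on retests at 20 µM and on dose response follow-up; controls were probe without protein and protein plus probe with vehicle; some compounds called inactive have numbers as strong as hits; many hits fall short of the cut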
Target sequence (P11940 whole entry, looked up): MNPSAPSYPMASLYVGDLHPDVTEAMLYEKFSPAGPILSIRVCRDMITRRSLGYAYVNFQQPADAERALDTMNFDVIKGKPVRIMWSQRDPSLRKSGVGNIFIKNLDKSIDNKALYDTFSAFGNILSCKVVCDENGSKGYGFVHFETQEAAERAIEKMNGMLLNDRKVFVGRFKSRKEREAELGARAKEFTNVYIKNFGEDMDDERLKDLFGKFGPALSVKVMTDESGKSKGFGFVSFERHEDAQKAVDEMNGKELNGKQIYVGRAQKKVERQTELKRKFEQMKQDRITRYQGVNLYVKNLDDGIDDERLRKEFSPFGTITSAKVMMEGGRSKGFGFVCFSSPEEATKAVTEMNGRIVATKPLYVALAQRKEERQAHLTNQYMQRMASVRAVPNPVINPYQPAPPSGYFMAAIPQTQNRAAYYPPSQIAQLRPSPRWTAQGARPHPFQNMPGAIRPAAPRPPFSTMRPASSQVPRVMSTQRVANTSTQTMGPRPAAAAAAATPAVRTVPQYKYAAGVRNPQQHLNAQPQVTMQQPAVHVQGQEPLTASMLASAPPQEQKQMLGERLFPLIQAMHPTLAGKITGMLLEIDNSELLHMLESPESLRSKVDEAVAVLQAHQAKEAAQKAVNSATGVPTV
eIF4H inh retest – further read-out of eIF4H inh, marked with its call; inhibition, %; compound at 20 µM; confirmation average;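 mean of two retest wells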
PABP polyA inh retest – further read-out of PABP polyA inh, marked with its call; inhibition, %; compound at 20 µM; confirmation repeats;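 mean of two retest wells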
MT1-MMP act inh RFP – also measured in MT1-MMP act inh; calls as there; RFP signal change, %; measured here: RFP expression control read;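 0 = vehicle wells; hits needed this value within 50% of zero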
* hit, by the source's call; i = inactive; . = no result given; & = joins results of further samples.

Start of the listing, in advance (3 entries):
SMILES | HIV Env fusion | eIF4H inh | CSC inhib | UUG fidelity | Rce1 inh | MT1-MMP act inh | MT1-MMP act inh RFP | PABP polyA inh | others
C=CC[C@H](CC(=O)N[C@H](CO)Cc1ccccc1)C(=O)N[C@@H](COC(=O)[C@@H](CC=C)Cc1ccc(F)cc1)Cc1c[nH]c2ccccc12 | -129.9 | . | . | -4.4 | . | 3.7 | -7.3 | .
COc1ccc(C(=O)NCC(=O)N/N=C(\C)Cc2ccccc2)cc1 | -2.3 | . | -5.9 | -6.1 | i | -7.0 | 3.1 | .
Cc1ccc(C(=O)Nc2ccccc2C(=O)NCc2ccccc2)cc1 | . | -12.5 | -2.6 | -6.7 | i | -7.4 | -8.2 | -2.2

The listing, previewed entries included:
SMILES | HIV Env fusion | eIF4H inh | CSC inhib | UUG fidelity | Rce1 inh | MT1-MMP act inh | MT1-MMP act inh RFP | PABP polyA inh | others
C=CC[C@H](CC(=O)N[C@H](CO)Cc1ccccc1)C(=O)N[C@@H](COC(=O)[C@@H](CC=C)Cc1ccc(F)cc1)Cc1c[nH]c2ccccc12 | -129.9 | . | . | -4.4 | . | 3.7 | -7.3 | .
COc1ccc(C(=O)NCC(=O)N/N=C(\C)Cc2ccccc2)cc1 | -2.3 | . | -5.9 | -6.1 | i | -7.0 | 3.1 | .
Cc1ccc(C(=O)Nc2ccccc2C(=O)NCc2ccccc2)cc1 | . | -12.5 | -2.6 | -6.7 | i | -7.4 | -8.2 | -2.2
O=C(CSc1nc2c(cnn2-c2ccc(F)cc2)c(=O)[nH]1)N1CCCCC1 | 17.2 | -3.2 | -4.9 | -12.6 | i | -3.9 | -0.5 | -20.3
COc1ccc(CN2CNc3c(c(=O)n(C)c(=O)n3C)C2)cc1 | . | 0.6 | 0.3 | -13.3 | i | -2.3 | 1.5 | 4.4
CN(C)c1ccc(N=Nc2ccc3ncccc3c2)cc1 | -305.4 | . | . | -28.7 | . | 22.7 | -1.0 | .
CC(=O)c1cccc(S(=O)(=O)N2CCCC(c3nc4c(nnn4Cc4ccc(C)cc4)c(=O)[nH]3)C2)c1 (centres undefined) | 30.0 | -7.9 | 6.4 | -5.9 | i | -0.1 | -4.4 | -0.4
CN(C(=O)COC(=O)CCc1nc2ccccc2c(=O)[nH]1)C1CCS(=O)(=O)C1 (centres undefined) | 3.9 | 5.2 | . | . | i | -2.1 | -0.1 | 1.9
CCc1ccc2oc(-c3ccc(NC(C)=O)cc3)nc2c1 | -187.5 | -9.9 | 8.3 | -15.4 | i | -7.1 | -4.5 | -4.6
COCCNc1nc(NC(C)C)nc2ccsc12 | 2.5 | . | . | -38.7 | . | 2.3 | 4.9 | .
O=C(NCc1cccnc1)c1cccs1 | 0.7 | -4.5 | . | . | i | -0.1 | -2.5 | -8.6
COc1ccc(Nc2ccc(N3C(=O)CC(C)C3=O)cc2[N+](=O)[O-])cc1OC (centres undefined) | 16.8 | -4.0 | -2.2 | . | i | 5.8 | -0.9 | 2.8
COC(=O)c1ccc(CSc2nnc3nc(C)cc(C)n23)cc1 | 9.3 | 0.8 | -3.0 | . | i | 2.7 | 0.7 | -2.2
O=C(NCc1ccco1)Nc1cccs1 | . | 8.6 | -3.9 | -12.4 | i | -1.4 | 5.0 | 12.5
COc1ccc(CC(=O)O/N=C(\N)c2ccccc2)cc1OC | -2.1 | -4.3 | -1.1 | -11.2 | i | 1.6 | -21.9 | 2.6
CCOc1ccc(C(=O)OCC(=O)N(Cc2ccccc2)Cc2ccccc2)cc1OC | -5.7 | . | -7.0 | -9.9 | . | 5.1 | -2.9 | .
COc1cc2oc(=O)cc(C)c2c(OC)c1OC | -39.2 | -4.2 | -14.1 | . | i | 2.9 | -2.3 | 7.5
CSCC[C@H](NC(=O)N1CCn2c1nc1ccccc12)C(=O)N[C@H](Cc1ccccc1)C(=O)O | . | -7.7 | -0.4 | 13.4 | i | 1.9 | 1.5 | -3.1
Cc1cccc(N2CCN(C(=O)c3ccc(Cl)c(NC4=NC5CS(=O)(=O)CC5S4)c3)CC2C)c1 (centres undefined) | 18.2 | -11.3 | 2.7 | -19.5 | i | 3.3 | -0.2 | -6.4
CC(C)Oc1ccc(C(=O)Nc2ccc(N3CCN(C(=O)c4ccco4)CC3)cc2)cc1 | 23.7 | -0.1 | -0.3 | -5.9 | i | 9.5 | -3.9 | 4.3
COc1ccc(-c2[nH]ncc2CN(CC2CCC(=O)N2)C(C)C)cc1F (centres undefined) | -7.4 | -3.5 | 8.6 | -6.2 | i | 0.0 | -0.8 | -5.7
Cc1ccc(-c2nn(-c3ccccc3)cc2/C=C(\C#N)c2cccc(C#N)c2)o1 | . | -24.3 | 7.9 | -10.7 | i | 0.1 | 2.1 | -8.9
CCOC1=C2CN(S(=O)(=O)c3ccc(C)cc3)[C@@H](c3ccc(CC)cc3)C[C@H]2[C@H]2C(=O)N(c3ccccc3)C(=O)[C@H]2C1 | -208.2 | . | . | -4.3 | . | 2.0 | -3.0 | .
CCOCCCNC(=O)CSc1ccccc1 | -22.8 | 2.6 | -12.8 | -27.3 | i | 2.4 | -1.7 | -5.5
C#CC(C)(CC)NC(=O)c1cc2nc(C3CC3)cc(C(F)(F)F)n2n1 (centres undefined) | -8.7 | 3.0 | -3.4 | 4.3 | i | 7.6 | -0.9 | -10.9
SMILES | HIV Env fusion | eIF4H inh | CSC inhib | UUG fidelity | Rce1 inh | MT1-MMP act inh | MT1-MMP act inh RFP | PABP polyA inh | others
COc1cc(NC(=O)c2cncc(-c3ccc(C#N)cc3)c2)cc(C(=O)Nc2cccc(C(F)(F)F)c2)c1 | -5.3&0.3 | -8.9 | 24.6 | -3.1&-13.1 | i | 4.0&2.7 | 4.4&2.5 | -4.2
Cc1ccccc1/C=C/C(=O)NCC(=O)N1CCC(N(C)C2CCCCC2C)CC1 (centres undefined) | 8.5 | 2.7 | . | . | i | 4.0 | 1.1 | 16.8
COC(=O)CNC(=O)C1CC(=O)N(CCc2ccc(F)cc2)C1 (centres undefined) | 3.0 | -11.3 | -7.9 | -7.9 | i | -0.1 | -1.3 | -0.5
Cc1cccc(C(=O)Nc2ccc(N3CCN(C(=O)c4ccco4)CC3)cc2)c1 | 14.8 | -3.8 | -3.5 | -8.5 | i | 1.9 | -3.9 | 5.2
Cc1ccc(C)c(N(CC(=O)NCc2ccco2)C(=O)CNS(=O)(=O)c2ccccc2)c1 | 5.0 | 0.0 | -0.7 | -8.6 | i | -0.5 | 3.5 | 12.9
COC(=O)c1cc(-c2ccc(S(=O)(=O)N3CCCC3)cc2)c(C(F)(F)F)s1 | -6.5 | -4.0 | 9.2 | . | i | 1.8 | -6.3 | 6.9
CC(=O)c1c(C)[nH]c(C(=O)OCn2nnc3ccccc3c2=O)c1C | . | 35.8 | -10.4 | 4.6 | i | -8.1 | -25.3 | 48.2
Cc1ccc(C(=O)NC(=O)CSc2nncn2C)cc1 | 9.5 | -14.7 | -14.7 | -15.0 | . | 3.0 | 4.4 | -1.7
C=CCn1c(SCC(=O)NCCCC)nc2scc(-c3ccco3)c2c1=O | . | 59.2 | . | -5.1 | i | -23.3 | 3.7 | 13.4 | eIF4H inh retest=-11.1;PABP polyA inh retest=7.2
c1ccc(CN2CCC(Nc3ncnc4sccc34)CC2)cc1 | 24.1 | 2.0 | -7.6 | . | i | 0.6 | 0.9 | -13.6
CCCCN(C(=O)c1cccc(N2C(=O)c3ccccc3C2=O)c1)c1c(N)n(CC(C)C)c(=O)[nH]c1=O | -6.0 | . | 1.4 | -16.8 | . | -2.4 | 0.4 | .
O=C(NCCCN1CCOCC1)c1ccc2nc(Cc3ccccc3F)oc2c1 | -2.1 | -12.1 | -10.1 | -7.8 | i | 0.9 | 3.2 | 4.1
COc1cccc(NC(=O)N2CCN(c3ccc(C(F)(F)F)cn3)CC2)c1 | . | 5.5 | -1.4 | -5.9 | i | 1.1 | 2.1 | 0.7
CC1CCN(C(=O)C2CCN(c3nnc(-n4cccc4)s3)CC2)CC1 | -7.7 | -4.0 | 0.1 | -5.8 | i | 2.5 | -1.9 | -0.2
Nc1nnc(CC(=O)N/N=C/c2cc([N+](=O)[O-])cc(Br)c2O)s1 | 1.7 | 85.9* | 3.7 | . | i | 5.7 | -0.3 | 46.6* | eIF4H inh retest=98.9*;PABP polyA inh retest=60.5*
Cc1ccc(/C(O)=C2\C(=O)C(=O)N(C)C2c2ccc(F)cc2)cc1 (centres undefined) | -1.0 | -6.5 | 0.4 | -11.9 | i | 2.1 | 4.1 | 3.6
CC(=O)c1c(C)[nH]c(C(=O)COC(=O)CNS(=O)(=O)c2ccccc2)c1C | -499.7 | -8.1 | -4.9 | 28.0 | i | -2.6 | -2.6 | 5.5
CCCCc1c(O)nc(SCC(=O)NCC2CCCO2)[nH]c1=O (centres undefined) | . | 0.2 | -0.8 | -0.7 | i | -0.2 | 5.6 | 2.0
O=S(=O)(NCc1nc2ccccc2[nH]1)c1ccccc1 | -6.4 | -16.3 | -18.1 | -17.1 | i | 0.3 | -0.2 | -5.6
CC(=O)C1=C(O)C(=O)N(c2ccc(F)cc2)C1c1ccc(C)cc1 (centres undefined) | -3.7 | 4.6 | -11.2 | -15.3 | i | 7.0 | -6.6 | 6.4
S=C(Nc1ccc(Br)cc1)N1CCN(c2ccccn2)CC1 | 9.4 | -14.7 | -7.8 | -18.6 | i | -2.8 | -4.4 | -9.9
CN(CCCC(=O)Nc1ccncc1)S(=O)(=O)c1ccc(Cl)cc1 | 66.1* | 6.6 | 16.2 | 3.3 | i | 0.4 | -19.2 | -7.5
O=C1N(Cc2cccnc2)C[C@@H]2C[C@@H](c3cccc(OCc4ccccc4)c3)N3CCC[C@@]123 | 5.0 | -7.5 | 0.6 | . | i | -7.8 | -6.5 | -8.6
CCOc1ccc(C)cc1S(=O)(=O)NC1CCCCC1 | -22.6 | 0.2 | 11.2 | -5.5 | i | 1.7 | 5.1 | 4.8
c1ccc(CCN(Cc2ccccc2)Cc2nc(C3CC3)no2)cc1 | 1.7 | -8.6 | 4.3 | . | i | -7.2 | -4.3 | 2.3
SMILES | HIV Env fusion | eIF4H inh | CSC inhib | UUG fidelity | Rce1 inh | MT1-MMP act inh | MT1-MMP act inh RFP | PABP polyA inh | others
COCCOC(=O)C1=C(C)NC(=O)NC1c1cc2c(cc1Br)OCO2 (centres undefined) | 12.9 | 0.4 | -5.6 | -2.6 | i | -1.0 | 0.7 | 9.8
COC(=O)c1ccc(C(=O)OC)c(NC(=O)CCS(=O)(=O)Cc2ccccc2)c1 | 9.8 | 7.2 | -2.3 | -16.7 | i | -3.1 | 0.3 | 15.6
O=C(NC(=S)Nc1ccc2[nH]c(=O)[nH]c2c1)c1cncc(Br)c1 | 11.9 | 2.2 | 14.0 | . | i | -8.2 | -8.0 | 19.7
CCOc1ccccc1NC(=O)c1cc(S(=O)(=O)N2CCOCC2)ccc1C | . | -5.2 | 11.7 | -0.3 | i | -0.5 | -0.8 | 0.6
CC1(C)CC(=O)c2cc(OCC(=O)O)ccc2O1 | . | -5.7 | -13.0 | -6.4 | i | -4.6 | -1.3 | 7.0
Oc1cccc(/C=N/N2CCCCC2)c1O | -16.4 | -12.1 | 16.5 | -19.8 | i | -5.4 | -8.0 | 2.0
CCc1noc(C)c1C(=O)NNC(=O)c1ccccc1Cl | . | . | 8.7 | -17.6 | . | -3.2 | -0.9 | .
N#C[C@H]1C2OC2c2ccccc2N1C(=O)c1ccccc1 (some centres undefined) | . | . | 1.8 | -3.6 | i | 6.6 | 2.6 | .
N#Cc1ccc(/C=N/N=C(N)N)cc1 | -6.6 | -2.5 | 6.1 | -12.2 | i | 1.1 | 3.3 | 1.5
CNC(=O)Cc1csc2ccc(Cl)cc12 | . | -1.8 | -10.3 | 4.2 | i | -2.6 | 1.3 | 0.4
O=C(/C=C/c1ccccc1)n1cnnc1SC/C=C/c1ccccc1 | 4.8 | -8.8 | -5.4 | . | i | 3.2 | 5.1 | -5.2

This is a subset, so the mix of outcomes need not match the whole.
